Bioassay records from PubChem BioAssay.
AF4-AF9 inh – blocks AF4 peptide binding to human AF9. 350,000 tested, 0.47% active. inhibition, % at 10 µM. P42568. AlphaScreen, biotin-AF4 peptide binding to FLAG-AF9;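 active = every replicate reaching a set inhibition limit, whatever the replicate mean, cut at about 25% in these data; inconclusive = mean inhibition reaches that limit but some replicates miss it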;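 note: 0% = plate neutral control median and 100% = total signal loss; the record names both 10 and 1 µM as test concentration; the first replicate is given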
Target sequence (P42568 whole entry, looked up): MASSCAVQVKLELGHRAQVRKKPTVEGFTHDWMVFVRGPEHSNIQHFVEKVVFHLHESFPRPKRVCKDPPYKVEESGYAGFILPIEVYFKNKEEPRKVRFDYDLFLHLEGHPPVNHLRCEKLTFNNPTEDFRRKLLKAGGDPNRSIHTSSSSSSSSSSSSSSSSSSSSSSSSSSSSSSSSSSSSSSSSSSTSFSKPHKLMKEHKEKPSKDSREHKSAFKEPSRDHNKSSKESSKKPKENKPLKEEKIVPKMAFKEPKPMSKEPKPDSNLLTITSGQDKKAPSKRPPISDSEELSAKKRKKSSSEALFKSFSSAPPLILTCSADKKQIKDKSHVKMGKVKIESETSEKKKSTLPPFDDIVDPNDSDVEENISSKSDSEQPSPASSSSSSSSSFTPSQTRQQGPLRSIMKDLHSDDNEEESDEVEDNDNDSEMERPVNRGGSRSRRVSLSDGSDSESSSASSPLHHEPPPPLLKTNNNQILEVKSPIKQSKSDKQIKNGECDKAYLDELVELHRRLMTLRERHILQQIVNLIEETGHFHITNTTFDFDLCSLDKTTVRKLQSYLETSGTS
FGF22 binding – FGF22 (human) thermal shift binding; 340,000 tested, 1.5% active; calls only at 9.99 µM; recombinant FGF22 thermal shift, SYPRO orange fluorescence; percent of sucrose octasulfate shift, DMSO zero; AID 651658; Q9HCT0;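 active = melting point raised past a set limit in the mean and every replicate; inconclusive = no clear call; three in four hits are not shown here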
Target sequence (Q9HCT0 whole entry, looked up): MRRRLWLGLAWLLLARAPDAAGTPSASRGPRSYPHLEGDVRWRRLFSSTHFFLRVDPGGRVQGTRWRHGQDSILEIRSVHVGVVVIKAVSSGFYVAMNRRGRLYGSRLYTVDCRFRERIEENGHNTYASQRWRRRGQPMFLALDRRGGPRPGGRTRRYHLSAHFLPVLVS
An asterisk follows results filed as active; i = inactive; ? = inconclusive; + = active, no number.

FGF22 binding,AF4-AF9 inh,SMILES
i,-1.9,CCOC(=O)OC[C@@H]1[C@@H]2NC(=O)N(C)[C@@]1(CO)Oc1ccccc12
i,2.5,COc1cc(-c2cc(=O)c3ccc(O)cc3o2)cc(OC)c1OC
i,-1.1,COc1cc(CNC(=O)C2CC(O)CN2C(=O)Nc2ccccc2)cc(OC)c1OC (centres undefined)
i,-2.1,CC1(C(=O)NCc2ccc(F)c(F)c2)Cc2c(-c3ccc4c(c3)OCO4)ccnc2O1 (centres undefined)
i,-1.6,O=C(COc1ccc(Br)cc1)N(Cc1nnc(-c2ccccc2Cl)o1)C1CC1
i,2.8,COc1ccc(C(O)c2ncc(-c3ccccc3C)[nH]2)cc1F (centres undefined)
i,-1.1,O=C(Nc1ccccc1)C1=C[C@@H](c2ccc3c(c2)Cc2ccccc2-3)C[C@@H](OCc2ccc(CO)cc2)O1
i,?,O=S(=O)(N[C@@H]1CCCN(Cc2cccc(OCCO)c2)C1)c1cc(Cl)ccc1Cl
i,0.3,COc1ccc(Cl)cc1NC(=O)CN(C)C(=O)c1cn(-c2ccccc2)nc1-c1cccs1
i,0.9,O=C1O[C@@H](c2ccccc2)[C@@H](c2ccccc2)N2[C@@H](c3ccc(OCCO)cc3)[C@]3(C(=O)Nc4ccccc43)[C@@H](C(=O)N3CCN(c4ncccn4)CC3)[C@H]12
i,0.8,O=C(Nc1c(Cl)cc2c(c1Cl)Cc1cc([N+](=O)[O-])ccc1-2)C(Cl)Cl
i,-2.3,CC(C)(C)[C@H]1C=C(C(=O)N2CCCCCCC2)O[C@@H](OCc2ccc(CO)cc2)C1
i,2.1,COC(=O)/C(=C\Nc1ccc(Oc2ccccc2OC(C)C)nc1)NC(=O)c1ccccc1
i,-2.1,COc1ccc(C(O)C2c3c(cc4c(c3OC)OCO4)CCN2C)c(CO)c1OC (centres undefined)
i,-2.0,COC(=O)C(CC#Cc1ccc2c(c1)[C@]1(C(=O)N2)[C@H](C(=O)N2CCN(c3ncccn3)CC2)[C@H]2C(=O)O[C@H](c3ccccc3)[C@H](c3ccccc3)N2[C@@H]1c1ccc(O)cc1)C(=O)OC
i,-2.4,c1ccc(C2=NCCCO2)cc1
i,2.3,COCCNC(=S)N1CCC2CC1c1c(Cl)cccc12 (centres undefined)
i,-0.9,CN1C(=O)[C@@H]2[C@@H](CC(COc3ccccc3)=C3[C@@H](c4ccccc4)OB(O)C[C@@H]32)C1=O
i,-2.9,Fc1cccc(Cc2c(-c3ccc(Cl)cc3)nc3ccc(Cl)cn23)c1
i,-5.2,CC1(CCc2ccccc2)NC(=O)N(CC(=O)N2CCc3ccccc32)C1=O (centres undefined)
i,-3.3,Nc1nc2c(ncn2[C@@H]2O[C@H](CNS(=O)(=O)N3CCCC3)[C@@H](O)[C@H]2O)c(=O)[nH]1
i,-2.5,COc1ccc(/C=C/C=O)cc1
i,-5.7,O=[N+]([O-])c1cc(S(=O)(=O)NCc2ccco2)ccc1NN=Cc1ccccn1
i,3.1,O=C(Nc1ccc(OC(F)(F)F)cc1)N1CCc2nc(NCc3cccc(Oc4ccccc4)c3)ncc2C1
i,7.2,COc1ccc2[nH]c3c(c2c1)CCN1C(=O)CC[C@H]31

For reference, six of the compounds above.
FGF22 binding,AF4-AF9 inh,SMILES
i,-1.1,COc1cc(CNC(=O)C2CC(O)CN2C(=O)Nc2ccccc2)cc(OC)c1OC (centres undefined)
i,-2.1,CC1(C(=O)NCc2ccc(F)c(F)c2)Cc2c(-c3ccc4c(c3)OCO4)ccnc2O1 (centres undefined)
i,-1.6,O=C(COc1ccc(Br)cc1)N(Cc1nnc(-c2ccccc2Cl)o1)C1CC1
i,2.8,COc1ccc(C(O)c2ncc(-c3ccccc3C)[nH]2)cc1F (centres undefined)
i,-1.1,O=C(Nc1ccccc1)C1=C[C@@H](c2ccc3c(c2)Cc2ccccc2-3)C[C@@H](OCc2ccc(CO)cc2)O1
i,?,O=S(=O)(N[C@@H]1CCCN(Cc2cccc(OCCO)c2)C1)c1cc(Cl)ccc1Cl

Later entries:
FGF22 binding,AF4-AF9 inh,SMILES
i,-0.2,O=C(NC1CCCC1)C1c2ccccc2OCC(=O)N1Cc1cccnc1 (centres undefined)
+,-1.9,C=CCNC(=O)[C@H]1[C@@H]2C(=O)O[C@@H](c3ccccc3)[C@@H](c3ccccc3)N2[C@@H](c2ccc(O)cc2)[C@]12C(=O)N(C(=O)OCCOC)c1ccc(C#CCC(C(=O)OC)C(=O)OC)cc12
i,4.9,O=C(C1CCCC1)N1CCCCN2[C@H](C1)[C@H](c1ccc(-c3ccncc3)cc1)[C@@H]2CO
i,-1.3,CC(=O)C1=CCC(c2ccccc2)N(S(=O)(=O)c2ccc(C)cc2)C1 (centres undefined)
i,1.0,CCCCC(c1nc2ccccc2[nH]1)N(C(=O)c1ccccc1)c1ccccc1[N+](=O)[O-] (centres undefined)
i,0.3,CCOC(=O)CNC(=O)N1C[C@H]2CON(C)[C@H]2C[C@H]1c1ccccc1Br
i,-1.1,CC1CCCN(C(=O)Nc2ccc([N+](=O)[O-])cc2)C1 (centres undefined)
i,-1.5,O=C(c1cccc(F)c1)N1CCCCN2[C@H](C1)[C@@H](c1ccc(-c3ccc(F)cc3)cc1)[C@@H]2CO
i,-0.5,CCCCCCn1c(=O)n2n(c1=O)C[C@]1(OC(=O)Nc3cccs3)CN(S(=O)(=O)c3ccc(C)cc3)C[C@]1(O)C2
i,2.6,COc1cc2c(c(O)c1OC)C1Cc3ccc(OC)c(OC)c3CN1CC2 (centres undefined)
i,-2.7,C#CCN(C[C@@H]1[C@@H](OC(=O)NC2CCCC2)[C@@H](OC(=O)NC2CCCC2)Cn2c(=O)ccc(=O)n21)S(=O)(=O)c1ccc(C)cc1
i,1.9,COC(=O)[C@]1(CO)N=C(c2ccc(OCCCO)cc2)O[C@@H]1c1ccccc1CN=[N+]=[N-]
i,3.7,CCOC(=O)C1=C(Nc2ccc(Br)cc2)C(=O)N(CC)C1
i,19,O=S(=O)(NC1CCN(Cc2ccc(OCCO)cc2)CC1)c1cc(Cl)ccc1Cl
i,0.4,O=C(C1CC1)N1CCCCN2[C@H](CO)[C@@H](c3ccc(C#CC4CC4)cc3)[C@H]2C1
i,-1.4,COCCOC(=O)N1C(=O)[C@@]2(c3cc(C#Cc4ccc(OC)cc4)ccc31)[C@H](C(=O)NC[C@H](O)c1ccccc1)[C@H]1C(=O)O[C@H](c3ccccc3)[C@H](c3ccccc3)N1[C@@H]2c1ccc(O)cc1
i,-3.6,CCOC(=O)C1=CC[C@@H](c2ccccc2)[C@@H]1C(=O)c1ccc(OC)cc1
i,4.5,C=CCN1C(=O)[C@]2(O[C@H](CCn3cc(CCO)nn3)[C@@H]([Si](C)(C)c3ccc(OC)cc3)[C@@H]2C)c2cc(N3C(=O)c4cccc5cccc3c45)ccc21
i,-6.6,COc1ccccc1NC(=O)c1oc2ccccc2c1C
i,-1.3,O=C(NCc1cc(Cl)cc(Cl)c1)c1ccc2nc([C@H]3C[C@H](O)[C@@H](CO)O3)[nH]c2c1
i,-2.8,CC#CCOCC1CNC(=O)O1 (centres undefined)
i,-1.7,COCCOC(=O)N1C(=O)[C@@]2(c3ccccc31)[C@H](C(=O)Nc1nc3ccccc3s1)[C@H]1C(=O)O[C@H](c3ccccc3)[C@H](c3ccccc3)N1[C@@H]2c1ccccc1OCCO
i,1.1,[N-]=[N+]=NCc1ccccc1C[C@@]1(C(=O)NCC(O)CO)N=C(c2ccc(OCCCO)cc2)O[C@@H]1c1ccccc1 (some centres undefined)
i,4.3,CCOC(=O)[C@]12CCCC=C1N(Cc1ccc(Cl)cc1Cl)C(=O)[C@H](CC(=O)N1CCCCC1)C2
i,13,COc1ccc(-c2ccc(C(=O)NCc3ccc(N(C)C)cc3)c3occc23)c(C)c1

(cont.)
FGF22 binding,AF4-AF9 inh,SMILES
i,-1.2,CCCCNC(=O)C1c2ccccc2OCC(=O)N1C1CC1 (centres undefined)
i,7.1,C[C@H](CO)N1C[C@H](C)[C@@H](CN(C)Cc2cccc(C(=O)O)c2)Oc2cc(C#CCC3CCCC3)ccc2S1(=O)=O
i,-12,CN1C(=O)c2cc(NC(=O)c3ccccc3Cl)ccc2OC[C@@H]2O[C@@H](CC(=O)NCC(F)(F)F)CC[C@@H]21
i,-4.2,CC(=O)OCC(=O)C1(O)CCC2C3CC(C)C4=CC(=O)C=CC4(C)C3C(O)CC21C (centres undefined)
i,-4.8,CC1=C(C(=O)N(C)C)CC(CC(=O)NCCCCc2ccccc2)C(=O)N1CCC1=CCCCC1 (centres undefined)
i,-3.8,OC[C@@H]1[C@H](c2ccc(-c3cccnc3)cc2)[C@@H]2CN(CC3CCOCC3)CCCCN12
i,-6.9,CC1=C(C(=O)N2CCCCCC2)CC(CC(=O)NCCN2CCOCC2)C(=O)N1Cc1ccc(C(C)(C)C)cc1 (centres undefined)
i,-3.8,Cc1ccc(F)c(S(=O)(=O)NC(=O)C2(C)CCN2C(=O)CCc2ccccc2)c1 (centres undefined)
i,-0.6,CCCCNC(=O)C1(C)CCN1C(=O)CSc1ccccc1 (centres undefined)
i,2.0,Cc1ccc(S(=O)(=O)Nc2ccc3c(c2)CC(=O)N([C@H](C)CO)C[C@@H](C)[C@@H](CN(C)CC2CCCCC2)O3)cc1
i,24,C[C@@H]1CN([C@@H](C)CO)C(=O)c2cccc(NC(=O)c3ccncc3)c2O[C@@H]1CN(C)Cc1ccc(Oc2ccccc2)cc1
i,-0.2,OC(Cc1cccc(Br)c1)c1ncc(-c2cccc(C(F)(F)F)c2)[nH]1 (centres undefined)
i,15,COc1ccc(S(=O)(=O)N[C@@H]2CCCN(Cc3ccc(OCCO)cc3)C2)cc1
i,2.3,O=C1NC[C@H](Cc2ccccc2)N(CC2CCN(CCCCc3ccccc3)CC2)C1=O
i,-9.8,C=C[C@@H](C)[C@@H](OC(=O)Nc1ccc(OC)cc1)c1ccc(OCCO)cc1
i,-0.9,O=C(NCC[C@@H]1CC[C@@H](NC(=O)C2CCCCC2)[C@@H](CO)O1)c1ccc(F)cc1
i,-0.1,COc1ccc(S(=O)(=O)NCc2cccnc2)cc1NC(=O)c1ccccc1C
i,-0.6,COc1cc2c3c(cccc3c1)C(=O)N(CCN1CCCC1)C2=O
i,-0.9,C=CCOC(=O)[C@@H]1[C@H]2C(=O)O[C@H](c3ccccc3)[C@H](c3ccccc3)N2[C@H](c2ccc(OCCOC(=O)[C@@H]3C[C@@H]4C(=O)N[C@@H](Cc5ccccc5)C(=O)N4[C@@H]3c3ccc(O)cc3)cc2)[C@@]12C(=O)Nc1ccccc12
i,2.1,Cc1ccc(S(=O)(=O)N2CCC(=O)N([C@H](COCc3ccc(Cl)cc3)C(C)C)CC2)cc1
i,-0.3,CC(=O)NC(c1ccccc1)c1nc(-c2ccc(S(C)(=O)=O)cc2)cs1 (centres undefined)
i,-0.1,Cc1ccc(CN2CCC[C@]3(N[C@H](c4ccc(C(F)(F)F)cc4)[C@@H]4C(=O)N(C)C(=O)[C@@H]43)C2=O)cc1
i,0.1,COCCNC(=O)C1(C)CCCN(CCSc2ccccc2)C1 (centres undefined)
i,-3.3,Cc1nc2ccc(Cl)cn2c1[N+](=O)[O-]
i,-7.4,CN(C)C(=O)[C@@]1(Cc2ccccc2)COC(c2ccc(OCCCO)cc2)=N1

Structures from the list above that have a thiophene ring, fused or not:
FGF22 binding,AF4-AF9 inh,SMILES
i,0.3,COc1ccc(Cl)cc1NC(=O)CN(C)C(=O)c1cn(-c2ccccc2)nc1-c1cccs1
i,-0.5,CCCCCCn1c(=O)n2n(c1=O)C[C@]1(OC(=O)Nc3cccs3)CN(S(=O)(=O)c3ccc(C)cc3)C[C@]1(O)C2

(further entries)
FGF22 binding,AF4-AF9 inh,SMILES
i,-0.2,COc1cc(NCCCn2ccc(NC(=O)OCc3ccccc3)nc2=O)cc(OC)c1OC
i,0.2,Cc1ccccc1-c1cc2nc(NCCOc3ccccc3Cl)n(C)c(=O)c2s1
i,1.8,COC(=O)c1c(CC[C@@H](CO)NC(=O)N2CCC[C@H]2Cn2cc(C3(O)CCCCC3)nn2)oc(C(C)=O)c1C(=O)OC
i,-0.9,COc1ccc(CC(=O)O/N=C(\N)c2ccncc2)cc1OC
i,-1.7,COC(=O)c1c(CC[C@@H](CO)NC(=O)N[C@@H](Cc2ccccc2)Cn2cc(C3(O)CCCC3)nn2)oc(C(=O)N2CCOCC2)c1C(=O)OC
i,-4.0,CN(CC(=O)Nc1cc(C(F)(F)F)ccc1-n1cncn1)Cc1nc2ccccc2c(=O)[nH]1
i,-1.2,Cc1cccc2c3c([nH]c12)[C@H]1CCC(=O)N1CC3
i,-2.6,COc1ccc(CCN2C(=O)COc3ccccc3C2C(=O)Nc2c(C)cccc2C)cc1OC (centres undefined)
i,-24,COc1ccc(NC(=O)COC(=O)CN2C(=O)C3CCCCC3C2=O)cc1 (centres undefined)
i,-4.1,COc1ccc(CNC(=O)c2[nH]c(C(F)(F)F)nc2-c2ccccc2)cc1
i,0.5,CC(C)NC(=O)Nc1ccc2c(c1)C(=O)N(C)[C@H]1CC[C@H](CC(=O)Nc3ccccc3)O[C@H]1CO2
i,16,COc1cc(C23CCCN(CCC(C(C)(C)C)C2)C32OCCO2)cc(OC)c1OC (centres undefined)
i,-2.6,COc1ccc(S(=O)(=O)NCc2ccccn2)cc1C
i,12,CN(C)CCCN(C(=O)c1ccc(S(=O)(=O)N2CCCCCC2)cc1)c1nc2cc3c(cc2s1)OCO3
i,-0.3,COC(=O)c1cn(C[C@@H](Cc2ccccc2)NC(=O)Nc2ccccc2)nn1
i,-0.1,CCc1ccc(OC2(C)CCN(Cc3ccc4c(c3)OCCO4)C2)cc1 (centres undefined)

FGF22 binding: what is marked active above.
FGF22 binding,AF4-AF9 inh,SMILES
+,-1.9,C=CCNC(=O)[C@H]1[C@@H]2C(=O)O[C@@H](c3ccccc3)[C@@H](c3ccccc3)N2[C@@H](c2ccc(O)cc2)[C@]12C(=O)N(C(=O)OCCOC)c1ccc(C#CCC(C(=O)OC)C(=O)OC)cc12

Not all compounds are listed; the hit share may differ from the screen's.
